# GLA inh pH 4.5 – blocks human alpha-galactosidase A at pH 4.5; purified enzyme, 4-MU-alpha-Gal fluorescence, pH 4.5; 230,000 tested, under 10 active; activity change, negative = inhibition, % at 105 µM; P06280; inconclusive = small, poorly fitted or top-dose-only inhibition, or a rising curve; inactive = flat fitted curve, though single readings scatter; no compound was filed as active;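 note: 0% = full activity with enzyme and -100% = basal without enzyme; dose as in the result columns while the protocol names 77 µM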
# Rango dissoc inh – inhibition of RanGTP-driven Rango-importin beta dissociation. Potency, µM (highest dose often 46.1 µM), for inactives: at the highest dose activity change, negative = inhibition. Biochemical FRET Rango-importin beta, RanGTP-induced dissociation. O95149+P62826. 340,000 tested, 0.071% active; active means falling FRET ratio curve, often poorly fitted, with flat reads before Ran was added; inconclusive means other falling curves, or compound fluorescence or quenching; inactive means flat or rising ratio curve;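 note: potency is the fitted concentration of half-maximal effect; % of control where 0% means no effect; nearly all actives have a fitted effect of over 45% in size; -100% = wells without RanGTP and RCC1; the record marks most hits as doubtful in a second field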
#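 Recombinant Rango FRET biosensor (EYFP–snurportin 1 IBB–cerulean CFP10) at 0.1 uM premixed with 0.25 uM importin beta in PBS, 1 mM DTT, 0.02% Tween-20, 0.1% BSA. Compound added 5 min; RanGTP-RCC1 (0.6 uM Ran, 2 mM GTP, 0.2 uM RCC1) then triggers release, read at 45 min.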
# miR-21 reporter – raises the signal of a miR-21 reporter; HeLa miR-21 FLuc reporter, luciferase, 48 h; Potency, µM (series often up to 38.3 µM), for inactives: at the top dose reporter change, positive = more light; 340,000 tested, under 10 active; AID 2288; active = well fitted rising curve with a large enough effect; inconclusive = small, poorly fitted or top-dose-only effect; inactive = no such curve, though single readings can be large or run the other way;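 note: % of control where 0% means no effect; miR-21 action dims this reporter so a rising signal means less miR-21 action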
#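 Using DMEM plus 10% FBS, HeLa miR-21-FLuc cells are incubated with test compounds (final up to about 40uM) for 48 hours; firefly luciferase signal is then imaged following reagent-mediated lysis.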
# Rango complex inh – prevents formation of the Rango-importin beta complex. Q14974. Rango CFP/YFP FRET sensor + importin beta, 45 min. Potency, µM (top dose mostly 92.2 µM), without a hit: at the top dose inhibition of complex formation. 340,000 tested, 0.031% active; active = rising FRET ratio curve, often small or poorly fitted; inconclusive = mostly compound fluorescence or quenching in the first reads; inactive = flat curves in all reads;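 note: potency is the fitted concentration of half-maximal effect; 0% = DMSO wells and 100% = buffer wells lacking importin beta; nearly all actives have a fitted effect of over 15% in size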
# Target sequence (Q14974 whole entry, looked up): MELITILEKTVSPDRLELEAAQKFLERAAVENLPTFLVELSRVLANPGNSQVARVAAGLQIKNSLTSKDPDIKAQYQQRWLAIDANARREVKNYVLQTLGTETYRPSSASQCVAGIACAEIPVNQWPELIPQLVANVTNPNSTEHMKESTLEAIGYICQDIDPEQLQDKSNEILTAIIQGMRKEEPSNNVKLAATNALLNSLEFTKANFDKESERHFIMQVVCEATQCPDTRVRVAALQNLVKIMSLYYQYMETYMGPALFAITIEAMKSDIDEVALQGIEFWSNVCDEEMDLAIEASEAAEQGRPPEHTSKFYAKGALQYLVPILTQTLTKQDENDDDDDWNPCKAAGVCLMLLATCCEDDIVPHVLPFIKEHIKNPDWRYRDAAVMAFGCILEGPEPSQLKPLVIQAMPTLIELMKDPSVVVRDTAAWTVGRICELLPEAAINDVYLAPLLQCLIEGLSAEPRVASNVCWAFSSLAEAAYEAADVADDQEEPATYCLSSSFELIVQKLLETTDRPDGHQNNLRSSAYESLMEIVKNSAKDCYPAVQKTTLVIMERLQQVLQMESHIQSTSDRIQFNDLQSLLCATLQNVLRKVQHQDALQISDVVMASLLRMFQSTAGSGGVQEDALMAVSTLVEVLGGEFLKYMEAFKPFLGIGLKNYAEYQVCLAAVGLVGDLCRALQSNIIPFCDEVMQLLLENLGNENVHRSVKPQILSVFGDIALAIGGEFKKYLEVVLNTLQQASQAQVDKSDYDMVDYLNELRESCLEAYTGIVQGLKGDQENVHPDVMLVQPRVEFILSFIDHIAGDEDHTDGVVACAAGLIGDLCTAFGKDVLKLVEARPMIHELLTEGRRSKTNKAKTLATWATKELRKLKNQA
#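 FRET biosensor (snurportin 1 IBB flanked by EYFP and cerulean), 50 nM, with compound 5 min, then 0.125 microM importin beta in PBS, 1 mM DTT, 0.02% Tween-20, 0.1% BSA. CFP/YFP ratio read after 45 min at room temperature; pre-read flags interference.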
# Starred values were filed as active, the others as inactive; ? = inconclusive; . = no result given. Only part of the results is shown, so the mix of outcomes need not match the whole.
# Start of the data: the first 12 entries, to show the layout:
SMILES,GLA inh pH 4.5,Rango dissoc inh,miR-21 reporter,Rango complex inh
Cc1c(C)c2ccc(OCC(=O)N3CCC(C(=O)O)CC3)c(C)c2oc1=O,.,2.1%,6.2%,5.0%
Cc1ccccc1NC(=O)C1CCCN(c2nnc(N3CCCC3=O)s2)C1 (stereo unspecified),.,-1.7%,2.6%,0.5%
O=C(Nc1ccc2nc(-c3ccccn3)[nH]c2c1)C1CCCCC1,2.6,12.5%,-53.6%,4.9%
COc1ccc(C(=O)NNC(=O)c2cc3cc([N+](=O)[O-])ccc3oc2=O)cc1OC,0.5,26.4%,-4.4%,-5.0%
Cc1ccc(Oc2ccc(NC(=O)Cn3ccsc3=N)cc2)cc1,3.7,4.0%,12.4%,-3.1%
C=CCN1C(=NC(=O)CC)SC2CS(=O)(=O)CC21 (stereo unspecified),-0.5,-1.1%,-2.4%,-5.6%
Nc1nonc1-c1nc2ccccc2n1Cc1ccc(F)cc1,-5.7,16.8%,13.9%,3.2%
Fc1cnc(Cl)nc1N1CCN(c2ccccc2)CC1,-0.4,2.1%,7.9%,0.0%
Cc1ccc(C(=O)OCC(=O)NCc2ccc(Cl)cc2Cl)o1,.,24.2%,.,5.1%
Cc1cccc(NC(=S)N(Cc2ccco2)C(C)c2cccs2)c1 (stereo unspecified),-3.5,8.2%,0.1%,-3.5%
NC(=O)CC(NC(=O)Cc1ccc(Br)cc1)c1ccc(NCCN2CCCC2)c([N+](=O)[O-])c1 (stereo unspecified),.,0.4%,-3.6%,6.5%
CCC(=O)N1CCc2cc(S(=O)(=O)N3CCN(c4cc(C)ccc4C)CC3)ccc21,.,15.5%,0.0%,-3.1%

# The listing, from the start:
SMILES,GLA inh pH 4.5,Rango dissoc inh,miR-21 reporter,Rango complex inh
Cc1c(C)c2ccc(OCC(=O)N3CCC(C(=O)O)CC3)c(C)c2oc1=O,.,2.1%,6.2%,5.0%
Cc1ccccc1NC(=O)C1CCCN(c2nnc(N3CCCC3=O)s2)C1 (stereo unspecified),.,-1.7%,2.6%,0.5%
O=C(Nc1ccc2nc(-c3ccccn3)[nH]c2c1)C1CCCCC1,2.6,12.5%,-53.6%,4.9%
COc1ccc(C(=O)NNC(=O)c2cc3cc([N+](=O)[O-])ccc3oc2=O)cc1OC,0.5,26.4%,-4.4%,-5.0%
Cc1ccc(Oc2ccc(NC(=O)Cn3ccsc3=N)cc2)cc1,3.7,4.0%,12.4%,-3.1%
C=CCN1C(=NC(=O)CC)SC2CS(=O)(=O)CC21 (stereo unspecified),-0.5,-1.1%,-2.4%,-5.6%
Nc1nonc1-c1nc2ccccc2n1Cc1ccc(F)cc1,-5.7,16.8%,13.9%,3.2%
Fc1cnc(Cl)nc1N1CCN(c2ccccc2)CC1,-0.4,2.1%,7.9%,0.0%
Cc1ccc(C(=O)OCC(=O)NCc2ccc(Cl)cc2Cl)o1,.,24.2%,.,5.1%
Cc1cccc(NC(=S)N(Cc2ccco2)C(C)c2cccs2)c1 (stereo unspecified),-3.5,8.2%,0.1%,-3.5%
NC(=O)CC(NC(=O)Cc1ccc(Br)cc1)c1ccc(NCCN2CCCC2)c([N+](=O)[O-])c1 (stereo unspecified),.,0.4%,-3.6%,6.5%
CCC(=O)N1CCc2cc(S(=O)(=O)N3CCN(c4cc(C)ccc4C)CC3)ccc21,.,15.5%,0.0%,-3.1%
COc1ccc(/C(=C\Nc2ccc(C)c(C)c2)C(C)=O)cc1OC,-1.2,2.8%,-9.8%,-0.1%
CCCCOc1ccc(NC(=S)Nc2cc(C)nc(SCCCC)n2)cc1,7.9,-4.7%,0.4%,2.5%
Cc1cc(N2CCOCC2)nc2ccc(Cl)cc12,.,-15.1%,-45.9%,-2.1%
COc1ccccc1NC(=O)c1ccc(Br)o1,-5.2,-4.0%,-14.4%,0.8%
CCCCNC(=S)N1CCN(c2ccc(C(C)=O)cc2)CC1,-30.1,-8.6%,-0.3%,-1.4%
CCC(=O)NC(=S)Nc1ccc(N2CCN(C(=O)c3ccc(Cl)cc3)CC2)cc1,-3.4,-5.9%,4.5%,?
Cc1ccc(C(=O)Nc2ncccc2C)o1,.,-12.6%,.,5.9%
COc1cc2c(cc1NC(=S)Nc1cccc(C)c1)oc1ccccc12,-7.1,-2.0%,-16.9%,2.3%
CN1CCN(c2ncnc3c2c(-c2ccccc2)cn3-c2ccc(F)cc2)CC1,?,-0.4%,6.8%,2.2%
CCOc1ccc(CCNC(=O)COC(=O)CCC(=O)c2cccs2)cc1OCC,.,0.9%,4.7%,-4.3%
CN(Cc1cc(=O)n2ccsc2n1)Cc1nc2ccccc2c(=O)[nH]1,3.4,-2.3%,-3.2%,0.6%
COc1ccccc1NC(=O)c1cn(C)c(=O)c2cc(OC)c(OC)cc12,-3.5,0.6%,0.1%,3.7%
O=C(NC(=S)Nc1ccc(CN2CCOCC2)cc1)c1ccc(-c2ccc(Cl)cc2)o1,-12.1,-14.6%,-8.7%,-4.5%
CC1Sc2ccc(S(=O)(=O)N3CCC(C(=O)NCc4ccco4)CC3)cc2NC1=O (stereo unspecified),.,-13.9%,11.2%,-0.4%
C/C(CC(=O)Nc1ccc2ccccc2c1)=N\NC(=O)c1cnccn1,-1.1,-6.8%,-30.6%,4.2%
Cc1ccc(Cl)cc1Nc1nc(-c2sc(NC(=O)c3ccco3)nc2C)cs1,-2.0,-17.2%,26.1%,-0.3%
Cc1cc(C)nc(N/N=C/c2ccccc2OCc2ccc([N+](=O)[O-])cc2)n1,-11.9,3.6%,-24.9%,-2.1%
Cn1cccc1C(=O)C(=O)Nc1ccccc1C(F)(F)F,3.6,0.5%,-50.7%,-1.8%
COc1cccc(-c2c(NC(C)=O)n(C)c3ccccc3c2=O)c1,.,-3.4%,3.0%,2.2%
COc1cc(/C=N/N(C)c2ccccc2)ccc1O,-4.0,-17.1%,-65.1%,0.2%
Cc1ccc(-c2csc(NC(=S)NC(=O)c3ccco3)n2)cc1,-8.5,9.6%,-7.5%,-1.9%
Cc1ccc(OCCn2nnc3ccccc32)cc1C,.,-9.7%,-51.9%,-1.1%
CN(C)S(=O)(=O)c1ccc(Cl)c(C(=O)OCC(=O)NC(=O)c2cccn2C)c1,4.9,18.4%,-0.3%,-4.3%
COc1ccc(C(=O)Nc2cccc(-c3cnc4ccccc4n3)c2)cc1,-4.3,-20.1%,-15.2%,1.2%
CCOC(Cn1ccc(=O)[nH]c1=O)OCC,-2.4,4.6%,-3.3%,-0.1%
O=C(COC(=O)/C=C/c1ccc(OC(F)F)cc1)Nc1ccc2[nH]c(=O)[nH]c2c1,.,1.1%,.,-0.4%
COc1ccc(OC)c(NC(=O)C2CCN(Cc3cnn(-c4ccccc4)c3-n3cccc3)CC2)c1,-2.9,1.4%,17.3%,-0.2%
Cc1ccc(C(=O)OCC(=O)Nc2nc(-c3ccccc3)cs2)cc1NC(=O)c1ccco1,-0.2,13.7%,1.8%,3.5%

# Next section; it opens with the 2 that closed the last part.
SMILES,GLA inh pH 4.5,Rango dissoc inh,miR-21 reporter,Rango complex inh
COc1ccc(OC)c(NC(=O)C2CCN(Cc3cnn(-c4ccccc4)c3-n3cccc3)CC2)c1,-2.9,1.4%,17.3%,-0.2%
Cc1ccc(C(=O)OCC(=O)Nc2nc(-c3ccccc3)cs2)cc1NC(=O)c1ccco1,-0.2,13.7%,1.8%,3.5%
Nn1c(SCc2ccc([N+](=O)[O-])cc2)nc2ccccc2c1=O,.,-9.8%,2.2%,2.1%
COc1ccc(N(CC(=O)Nc2cccc(C(F)(F)F)c2)S(C)(=O)=O)cc1,2.3,22.0%,-24.3%,-0.2%
COc1ccc(C(=O)OCC(=O)NCCc2ccc(F)cc2)cc1S(=O)(=O)N1CCOCC1,.,2.6%,.,0.0%
CCCN1CN=C(Nc2nc3ccccc3o2)NC1,9.3,-1.5%,-54.3%,-3.5%
CC(C)NC(=O)c1cc(=O)n(C)c(=O)n1C,-10.1,4.7%,-3.0%,0.0%
O=C(NC(=S)NNC(=O)c1ccccc1O)c1ccco1,-13.4,1.1%,-5.1%,3.0%
COc1cccc2c(=O)n(CC(=O)N3CCCCCC3)ccc12,0.3,-1.0%,-4.0%,-1.6%
CCOC(=O)C1CCCNC1=O (stereo unspecified),0.4,-1.8%,5.7%,5.0%
O=C(/C=C/c1cccs1)c1ccc(NC(=O)c2ccccc2F)cc1,3.2,-11.2%,-65.9%,1.1%
COc1ccc(CN(C)C(=O)Cc2c[nH]c3ccccc23)cc1,.,-2.6%,-16.4%,0.4%
CC(C)N(C(=O)[C@H]1C[C@H](CC(=O)NCc2cccc(C(F)(F)F)c2)C(=O)N2CCc3c([nH]c4ccc(Cl)cc34)[C@]12C)C(C)C,.,21.1%,.,0.3%
Cc1ccc(NC(=O)Cc2c(Cl)cccc2Cl)cc1S(=O)(=O)N(C)C,-6.3,-11.9%,-18.2%,3.0%
O=C(Nc1ccc([N+](=O)[O-])cc1)c1ccc(Cn2cc([N+](=O)[O-])cn2)cc1,-6.0,-16.1%,21.6%,1.4%
O=C(NCc1ccccc1)C1=C[C@H](c2ccc(C(F)(F)F)cc2)C[C@H](OCc2ccc(CO)cc2)O1,?,-15.8%,-1.0%,-8.3%
CCNC(=O)c1cc(Br)ccc1Cl,5.9,-2.2%,-2.5%,3.5%
CCOC(=O)C1(CCc2ccccc2)CCN(C(=O)CCc2cnccn2)CC1,-1.1,1.5%,-32.8%,-2.3%
O=C1CN(C(=O)CSc2nc(-c3ccc(Cl)cc3)cs2)c2ccccc2N1,-1.7,0.4%,15.3%,1.8%
CN(CC(=O)Nc1cccc(F)c1)C(=O)c1csc2c1CCCC2,.,-11.6%,.,-0.4%
O=C(COc1ccc(S(=O)(=O)N2CCCCC2)cc1)NC1CCCCC1,-0.8,2.0%,-5.8%,-1.1%
O=[N+]([O-])c1ccc(-c2cn3c(n2)CCC3)cc1,7.0,10.7%,-36.8%,0.1%
Cc1ccccc1CN1CCN(CC(=O)NCc2ccccn2)C1=O,-0.7,-5.9%,-3.3%,0.1%
COc1cccc(CNCc2ccc3c(c2)OCO3)c1,.,1.1%,-7.7%,3.1%
CCN1C(=O)N(CN2CCOCC2)C2C1N(CN1CCOCC1)C(=O)N2CC (stereo unspecified),2.4,3.8%,-7.6%,0.0%
CCOC(=O)C1(Cc2ccc(OC)cc2)CCN(C(=O)c2ccc3[nH]ccc3c2)CC1,-6.6,11.0%,3.6%,-0.2%
COc1cc(Br)cc(CN2CCN(C/C=C/c3ccccc3)CC2)c1O,-3.8,21.7%,-1.4%,4.8%
Cn1c(Oc2ccc(F)cc2F)c(C=O)c2ccccc21,-28.7,-10.6%,3.7%,-1.6%
Cc1nc(NS(=O)(=O)c2ccccc2)sc1NC(=O)Nc1ccc(Cl)cc1,-1.7,-5.7%,0.1%,-5.1%
C=CCN1C(=O)C(CC(=O)NCC)SC1=Nc1cc(Cl)ccc1Cl (stereo unspecified),.,1.2%,6.7%,-1.2%
CN(Cc1ccccc1)C(=O)c1ccc(NC(=O)Cc2ccc(NC(=O)C3CCN(C(=O)CCc4ccccc4)CC3)cc2)cc1,.,24.2%,.,?
CC(C)(C)NC(=O)CCN1CCOCC1,3.0,8.6%,-0.9%,-0.1%
O=C(Nc1ccc(N2CCCCC2)cc1)c1cc([N+](=O)[O-])cc([N+](=O)[O-])c1,-4.8,-15.5%,-19.3%,9.5%
Cc1ccc(S(=O)(=O)N2CCN(C(=O)Cc3ccccc3)CC2)cc1C,.,?,.,1.0%
COC1(OC)C(=N/O)/C(=N\O)CCC1O (stereo unspecified),-1.1,2.5%,-1.2%,-2.9%
CCCN1CNC(=S)N(CC2CCCO2)C1 (stereo unspecified),-2.8,3.3%,0.3%,-1.3%
COc1ccc([C@H](NC(=O)OC(C)(C)C)C(=O)OC(C)(C)C)cc1,.,18.1%,.,-4.5%
C/C(=N\NC(=S)Nc1ccc(F)cc1)C1CC1,0.7,-2.2%,-22.6%,-0.9%

# From PubChem
